# From PubChem BioAssay
# A1 inh – caspase 3/7 activation in MEF A1-2A-BIM cells, primary screen, A1 inhibitor project, cell-based, luminescence, HTS | Caspase-Glo 3/7 luminescence, 3 h; percent of clofoctol response, vehicle zero | caspase activation, % (test concentration not listed) | actives 0.066% (n = 330,000);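 active = over half of replicate activation scores above 10%, or exactly half above 10 with the replicate mean above 10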;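 also: wells of about 30 µL received 50 nL stock; many hits fall short of the cut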
# LANA-H2A inh – blockers of LANA interaction with H2A/H2B – biochemical, FP readout, HTS, primary screen. actives 0.6% (n = 320,000). Protein LANA1 (Human herpesvirus 8 type P (isolate GK18)), Q9QR71. cell-free LANA-H2A/H2B peptide, fluorescence polarization. inhibition, % (no concentration beside the values); in the data active = inhibition mostly above about 10%, no sharp cut-off; inactive = mostly below about 6.7%;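 also: stock transfer was 7.5 nL into about 10 µL; 0% = median of vehicle wells and 100% = median of positive control wells; one replicate is shown; the record names a cut of 25% in any replicate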
# Calb FLC – C. albicans growth inhibition with fluconazole, primary screen, CaCi-2 strain, Alamar Blue fluorescence. AID 1979, 2009. C. albicans CaCi-2 (fluconazole-resistant clinical isolate) + fluconazole, 48 h. actives 0.57% (n = 300,000). growth inhibition, % (no concentration beside the values);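 active = most replicates above 75%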;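 also: all wells also contain fluconazole at 8 µg/ml as a sub-toxic cotreatment; 0% = median of DMSO wells and 100% = median of geldanamycin control wells; wells of about 8 µL received 7.5 nL stock; the first replicate is given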
# Beta cell apopt – inhibitors of cytokine-induced beta cell apoptosis, primary screen, luminescence; INS-1E cytokine-induced death, ATP luminescence, 48 h; percent of positive-control rescue, neutral wells zero; protection from apoptosis, % (no concentration beside the values); actives 0.8% (n = 300,000); AID 435005, 2010;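 active = all replicates at 75% or more, or half of them and the mean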;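 also: 0% = cytokine-treated negative control wells and 100% = positive control rescue; higher means more ATP so stronger rescue from cytokine killing; wells of about 40 µL received 100 nL stock; the first replicate is given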
# B2AR ag – beta2AR agonists driving receptor internalization, primary screen, cell-based, FAP fluorogen, flow cytometry; Beta-2 adrenergic receptor (Homo sapiens), P07550; Am2.2-beta2AR cells; reference of the scale not given here; response, % (test concentration not listed); actives 0.43% (n = 340,000); AID 504454, 2011;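 active = response above a set limit, near 3 SD of response in nonfluorescent compounds, cut at about 42% in these data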;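 also: stock transfer was 100 nL into about 11 µL; a reference agonist was the positive control; negative values mostly stem from fluorescent compounds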
# Target sequence (P07550 whole entry, looked up): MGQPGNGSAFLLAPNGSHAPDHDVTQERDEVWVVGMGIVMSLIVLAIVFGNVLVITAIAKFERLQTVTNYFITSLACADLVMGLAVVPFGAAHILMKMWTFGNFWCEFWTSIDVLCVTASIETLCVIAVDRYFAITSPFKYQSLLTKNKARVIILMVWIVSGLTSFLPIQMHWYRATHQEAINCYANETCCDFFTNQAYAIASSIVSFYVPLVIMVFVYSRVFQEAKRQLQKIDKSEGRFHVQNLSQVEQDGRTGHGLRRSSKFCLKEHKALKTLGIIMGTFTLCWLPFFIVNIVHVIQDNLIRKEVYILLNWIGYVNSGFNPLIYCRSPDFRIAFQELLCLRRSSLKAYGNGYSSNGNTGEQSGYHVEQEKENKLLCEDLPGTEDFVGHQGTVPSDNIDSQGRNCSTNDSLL
# T cruzi repl – inhibitors of intracellular T. cruzi growth, primary screen, luminescence, NIH3T3 host cells; T. cruzi beta-gal in NIH3T3, 90 h; inhibition, % (test concentration not listed); actives 1.4% (n = 300,000); AID 1885, 2009;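 active = mean inhibition across valid replicates above about 55%, limit read from the data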;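 also: signal also drops with host cell toxicity which is not excluded here; 0% = plate median of DMSO wells and 100% = zero luminescence signal; higher percent means less beta-gal luminescence so fewer parasites; stock transfer was 50 nL into about 50 µL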
# rRNA inh HTS – reduced GFP signal of wild-type E. coli, primary screen, bacterial rRNA inhibitor project, GFP/RFP fluorescence, OD600, single point. E. coli WT GFP vs humanized-ribosome RFP mutants, 24 h; active compounds read low; DMSO median 0, no signal -100. GFP signal change (wild-type ribosome), % (concentration not given with the values). actives 1.6% (n = 350,000). AID 720706, 2013;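 active = significant combined selectivity score with lowered wild-type GFP, culture density cut under 30%, mutant RFP and density less affected; inactive = any of these conditions unmet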; also: one replicate is shown; some compounds called inactive have numbers as strong as hits
# ALR H2O2 inh – inhibitors of human ALR sulfhydryl oxidase, primary screen, biochemical, H2O2 detection, HRP-luminol luminescence, single point; actives 3.8% (n = 290,000); purified ALR, DTT oxidation; inhibition, % (no concentration beside the values); AID 485317, 2010; FAD-linked sulfhydryl oxidase ALR (Homo sapiens), P55789;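 active = mean and each replicate at 75% or more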;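 also: stock transfer was 7.5 nL into about 7.5 µL; 0% = neutral wells and 100% = wells with inactivated enzyme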
# Target sequence (P55789 whole entry, looked up): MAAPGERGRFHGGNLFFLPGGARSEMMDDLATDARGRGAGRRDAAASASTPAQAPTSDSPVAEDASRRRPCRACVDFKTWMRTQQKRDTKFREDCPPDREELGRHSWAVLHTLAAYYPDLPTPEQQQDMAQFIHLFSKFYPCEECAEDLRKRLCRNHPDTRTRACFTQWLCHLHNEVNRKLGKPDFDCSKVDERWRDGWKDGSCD
# rRNA inh HTS OD600 – recorded beside rRNA inh HTS, whose call it bears; OD600 change, %; measured here: OD600 growth;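 optical density of the mix in the first replicate; 0 = DMSO median and -100 = no signal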
# rRNA inh HTS RFP – recorded beside rRNA inh HTS, whose call it bears; RFP signal change, %; measured here: RFP humanized mutant strains;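 first replicate; 0 = DMSO median and -100 = no signal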
# Starred values were filed as active, the others as inactive; nt = no result given. A portion of the library; count on the stated rates, not on these rows.
SMILES,A1 inh,LANA-H2A inh,Calb FLC,Beta cell apopt,B2AR ag,T cruzi repl,rRNA inh HTS,rRNA inh HTS OD600,rRNA inh HTS RFP,ALR H2O2 inh
CCOC(=O)c1ccccc1NC(=O)c1n[nH]c(=O)c2ccccc12,0.6,-1.6,30,5,-3,6,nt,nt,nt,12
O=C(C[n+]1ccc(/C=N/O)cc1)NC1CCCCC1,0.9,17*,-11,1,4,12,-5,3,-0.6,-23
CCOC(=O)C1=C(CC)OC(N)=C(C#N)C1c1cccs1 (configuration not stated),0.3,-0.5,4,-5,11,-12,5,0,-0.4,32
Cn1ncc([N+](=O)[O-])c1C(=O)Nc1ccc2c(c1)OCCO2,-0.8,3.8,2,-5,-4,nt,nt,nt,nt,-23
CC(C)Oc1ccc(C(=O)NC2CCSc3ccccc32)cc1 (configuration not stated),0.9,2.5,33,2,-16,10,4,12,-3.7,-9
Cc1[nH]c2ccccc2c1-c1nc(N)sc1C,-0.4,1.6,1,-1,0,-8,0,1,-3.6,39
O=C(CC1S/C(=N/N=C/c2c[nH]c3ccc(OCc4ccccc4)cc23)NC1=O)Nc1ccccc1 (configuration not stated),0.5,-1.7,-11,-5,14,-4,nt,nt,nt,nt
CN(C)S(=O)(=O)c1cccc(NC(=S)NCCCn2ccnc2)c1,0.2,-0.9,10,-7,-5,-18,11,13,5.5,-10
COc1ccc(C(c2sc3ncnn3c2O)N2CC(C)OC(C)C2)cc1OC (configuration not stated),-0.2,-0.1,-4,1,5,-40,1,8,-1.0,nt
CC12CCC(C(=O)Nc3ccc(Cl)cc3)([C@H](Br)C1=O)C2(C)C (some centres not stated),0.1,-4.2,6,nt,4,20,-36,-32,0.7,nt
CCN(c1ccccc1)S(=O)(=O)c1ccc(C(=O)Nc2ccccc2OC)cc1,0.9,1.4,nt,5,6,nt,0,-6,1.2,2
O=c1c(Cl)c(Cl)cnn1Cc1nnc(-c2ccc(Cl)cc2)o1,nt,nt,21,nt,21,60*,-19,-28,0.0,nt
COc1ccc(/C=C2\CCCC3C2=NN(C(=O)CSc2n[nH]c(N)n2)C3c2ccc(OC)cc2)cc1 (configuration not stated),-0.6,0.5,19,-5,10,39,-9,-13,20,-9
Cc1ccc(NC(=O)COC(=O)Cn2cnc3ccccc32)c([N+](=O)[O-])c1,0.4,8.1,40,-2,0,-5,16,-1,2.4,-19
Cc1ccc(NC(=O)CNC(=O)c2ccc(C(C)(C)C)cc2)cc1S(=O)(=O)N1CCOCC1,1.0,5.0,nt,4,0,nt,7,-19,9.7,-2
Cn1c(=O)c2c(nc(Br)n2CCc2ccccc2)n(C)c1=O,-4.8,0.8,9,-1,-3,-1,nt,nt,nt,7
O=C(CCl)Nc1ccc(-c2ccccc2)cc1,-1.2,-3.5,92*,-24,0,61*,-4,-5,-2.9,nt
CCOC(=O)C1=C(C)NC(=O)NC1c1ccc(-c2ccccc2F)o1 (configuration not stated),1.7,nt,-11,-5,-9,-16,9,-2,-0.7,nt
O=C(COc1cccc(NC(=O)c2cccs2)c1)c1ccc(F)cc1,-1.0,-2.4,33,-5,-4,-9,-16,-17,-15,2
CCS/C(N)=N/N=C/c1cc(C)ccc1O,-5.8,0.4,-17,-1,-9,-19,nt,nt,nt,-4
COc1ccc(C2(C(=O)NCCc3ccccc3)CCCC2)cc1OC,0.2,-8.0,-16,nt,-5,5,nt,nt,nt,-3
CN(C)c1nc(Nn2cnnc2)nc(N(C)C)n1,0.0,4.6,-1,-19,-3,-8,7,4,-6.5,3
Cc1ccc(S(=O)(=O)NC2(C(F)(F)F)C(=O)Nc3c2c(=O)[nH]c(=O)n3-c2ccccc2)cc1 (configuration not stated),0.2,-3.0,-1,-4,-13,-12,nt,nt,nt,-1
COc1ccc2c(Cl)c(-c3nnc(SCC(N)=O)n3C)sc2c1,0.1,3.5,-6,-2,-5,15,4,0,-1.8,3
O=C(c1nc2ccccc2[nH]1)c1ccccc1[N+](=O)[O-],-0.4,-3.6,1,-3,-2,-8,2,3,1.3,2
Oc1ccccc1C1=NN(c2ccccc2)C(c2ccccc2)C1 (configuration not stated),-1.3,-0.6,-13,4,13,4,-21,-28,38,47
N#Cc1nc(-c2ccco2)oc1NCCN1CCOCC1,0.1,-2.3,23,-13,-7,nt,nt,nt,nt,39
O=C(NCc1ccccn1)c1ccc(OC2CCN(Cc3cccs3)CC2)cc1,2.5,-2.7,-9,-2,-5,0,5,-14,5.5,nt
COc1ccc(S(=O)(=O)CCC(=O)N2CC(=O)N(CCc3ccccc3)C(=O)C2)cc1,-0.2,2.0,nt,-6,4,nt,nt,nt,nt,11
Cc1ccc(S(=O)(=O)NC(CC(=O)O)c2ccco2)cc1 (configuration not stated),nt,nt,-2,nt,9,-5,12,9,-1.5,nt
COc1ccccc1N1CCN(C(=O)CCNC(=O)Cn2ccc3ccccc3c2=O)CC1,-0.5,0.2,0,-1,2,-3,-2,-8,1.2,30
COc1ccc(C2CC(c3ccc4ccccc4c3OC(C)=O)=NN2C(=O)/C=C/c2ccccc2)cc1 (configuration not stated),0.0,-10,24,13,-6,34,15,10,-1.7,-6
COC(=O)c1[nH]c2cc(OC)ccc2c1N=CN(C)C,0.6,1.3,0,8,3,-12,-2,5,-1.3,88*
CCOC(=O)c1cncc(C(=O)O)c1,0.2,-2.6,-5,-2,1,-10,nt,nt,nt,-9
CN1CCN(CC(=O)NN2CC(=O)N(c3ccc(F)cc3)CC2=O)CC1,0.2,3.7,-6,-2,1,-10,8,7,-1.4,-15
CCOC(=O)NC(=O)CSc1nc2ccc(C)cc2[nH]1,-0.4,-4.5,-8,-7,8,-3,14,6,5.2,2
CC(C)(C)CC(=O)NCc1ccc(F)cc1,0.2,-3.2,-7,5,-1,5,nt,nt,nt,-7
O=S(=O)(Nc1nc2c(s1)CCCC2)c1ccc2ccccc2c1,0.5,0.5,15,0,-12,-18,nt,nt,nt,48
CCOc1ccc(N(C)C(=O)CCc2nnc3ccc(NCc4ccco4)nn23)cc1,-0.7,1.9,-2,7,16,-15,5,6,-0.2,-2
O=C(CSC1CC(=O)N(CCc2ccccc2)C1=O)Nc1cccc(Cl)c1 (configuration not stated),0.5,3.1,38,-48,7,-11,nt,nt,nt,99*
COc1ccc(NC(=O)c2cc3ccccn3n2)cc1,-7.3,-3.3,-4,11,-10,-2,-2,9,-3.1,-2
COc1ccc(OC(C)C(=O)NC2CCCCCCC2)cc1 (configuration not stated),1.2,6.2,-13,0,0,-2,1,-10,-2.4,0
Cc1ccc(C(=O)Nc2ccccc2C(=O)NCc2ccco2)cc1,1.9,-0.6,nt,-7,-5,nt,-15,-21,-2.2,-14
CCOC(=O)C(C(=O)NCc1ccc(F)cc1)c1ncc(C(F)(F)F)cc1Cl (configuration not stated),0.3,2.0,14,-2,-5,-2,nt,nt,nt,-17
CN(CC(=O)Nc1cccc(F)c1)C(=O)c1cccc2ccccc12,0.2,6.9,nt,-5,-3,nt,1,-8,3.8,3
CC1(C)C(C=C(Cl)Cl)C1C(=O)OCc1cccc(Oc2ccccc2)c1 (configuration not stated),-0.4,9.7,nt,1,-6,nt,4,7,-3.4,2
CC(=O)Nc1cccc(NC(=O)CS(=O)(=O)c2cn(CC(=O)N3CCCC3)c3ccccc23)c1,0.6,1.9,2,-4,-6,0,7,15,0.1,-16
CC(=O)NC1(C(F)(F)F)C(=O)NC(C)=C1C#N (configuration not stated),-0.4,-6.4,1,-2,4,-8,nt,nt,nt,-3
Cc1cc(C)n(CC(=O)n2c3c(c4ccccc42)CCCC3)n1,-0.3,-0.3,-4,-3,-12,14,nt,nt,nt,-43
CC1CCCCN1CCNC(=O)C1CCCN(c2ncnc3c2nc2n3CCCCC2)C1 (configuration not stated),0.4,3.2,-1,2,-14,-7,12,4,-2.6,-2
Nc1nonc1-c1nc2ccccc2[nH]1,-0.9,3.9,0,-3,-2,0,nt,nt,nt,10
CCN(CC)S(=O)(=O)c1cc([N+](=O)[O-])ccc1NNC(=O)Nc1ccc(F)cc1,-0.2,0.6,-1,13,7,23,nt,nt,nt,-3
CCCS(=O)(=O)N1CCCC(C(=O)N2CCC(Cc3ccccc3)CC2)C1 (configuration not stated),1.1,-1.7,-4,-2,-3,7,nt,nt,nt,-37
Cc1ccc(C(=O)c2coc3ccc(O)c(CN4CCN(C)CC4)c23)cc1,0.6,4.2,-6,nt,-6,2,nt,nt,nt,15
O=S(=O)(c1ccccc1)n1ccc2cccnc21,-0.4,-0.9,-10,-10,14,-14,nt,nt,nt,-9
COc1ccccc1-n1c(=O)[nH]c2c(C(N)=O)nc(-c3cccnc3)nc21,-0.7,-2.4,-1,6,4,9,15,14,-0.1,-1
CC(=O)C1=C(O)C(=O)N(c2ccccn2)C1c1ccc(C)cc1 (configuration not stated),1.2,-1.6,1,-9,12,5,2,10,-0.2,-5
CCOC(=O)c1ccccc1NC(=O)CSc1nncn1C,0.1,4.7,6,0,3,6,8,2,2.7,-2
COCCCNC(=O)Cc1ccccc1OC,-0.2,-2.3,-7,-12,-2,10,22,14,1.2,10
C/C(=C\c1cccc(Cl)c1Cl)C(=O)c1c(C)cc(C)[nH]c1=O,0.2,-2.6,3,nt,-3,12,-15,-23,-0.6,-1

# Three entries out of the list above, arranged by the value under ALR H2O2 inh, falling:
canonical_smiles | ALR H2O2 inh
CC1(C)C(C=C(Cl)Cl)C1C(=O)OCc1cccc(Oc2ccccc2)c1 (configuration not stated) | 2
CCN(CC)S(=O)(=O)c1cc([N+](=O)[O-])ccc1NNC(=O)Nc1ccc(F)cc1 | -3
O=S(=O)(c1ccccc1)n1ccc2cccnc21 | -9

# (listing goes on)
SMILES,A1 inh,LANA-H2A inh,Calb FLC,Beta cell apopt,B2AR ag,T cruzi repl,rRNA inh HTS,rRNA inh HTS OD600,rRNA inh HTS RFP,ALR H2O2 inh
O=C1CC(c2ccccc2)CC(O)=C1C=NC1CCCCCC1 (configuration not stated),1.0,0.1,-7,-5,-11,6,nt,nt,nt,nt
O=C1[C@@H]2Cc3c([nH]c4ccccc34)C(c3ccc(Cl)cc3)N2C(=O)CN1CCO (some centres not stated),2.6,-2.2,8,-4,-1,5,-5,-3,8.9,99*
O=C(OC1CCCCC1=O)c1cccc(S(=O)(=O)NCc2ccccc2)c1 (configuration not stated),-1.3,-1.1,8,0,6,7,nt,nt,nt,5
O=[N+]([O-])c1cc(S(=O)(=O)N2CCCC2)ccc1OCCOc1ccccc1,0.6,-5.9,nt,5,2,nt,5,-1,2.4,-7
CCOc1ccc(NC(=O)c2ccc3c(c2)OCCO3)cc1S(=O)(=O)N(CC)CC,0.6,1.9,nt,1,3,nt,nt,nt,nt,-3
O=C1N=C(N2CCN(c3ccccc3)CC2)SC1Cc1ccccc1 (configuration not stated),0.1,4.0,2,-5,-2,0,nt,nt,nt,2
